Bioassay records deposited in PubChem BioAssay by several laboratories.
BJeLR lethal: MLPCN primary cell-based screen for lethality selective to Ras in HRASV12 cells; 0.17% of 300,000 active; inhibition, % (no concentration beside the values); BJeLR (HRASV12) viability, CellTiter-Glo ATP luminescence, 48 h; reference of the scale not given here;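 active = replicate mean above 50%; inconclusive = above 50% but judged a plate artefact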;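 note: 50 nL library stock added to about 25 µL; numbers are from one replicate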
PrP UTR inh: inhibition of PrP 5' UTR reporter expression; AID 488862, 2010; cell-based PrP 5' UTR mRNA reporter, plate reader; inhibition, % (no concentration beside the values); 0.35% of 340,000 active;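 active = every replicate at 50% or more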;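 note: 0 = median of the neutral control wells; tested in H4 reporter cells; numbers are from one replicate; inactives centre near -14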
Sa ugtP lethal: growth inhibition of ugtP-null S. aureus, primary screen, RN4220 ugtP deletion, OD600. AID 1259309, 2017. growth inhibition, % (test concentration not listed). 16 h; some inactives read as strong as hits. 0.54% of 330,000 active;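 active = z-score under -3 and OD600 up to 0.15 on both plates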;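 note: plate controls were untreated wells for no effect and antibiotic for full effect; wells of about 80 µL received 100 nL stock; the first replicate is given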
Mtb hypoxia inh: PubChem AID 1159583 | M. tuberculosis hypoxia-regulated fluorescent reporter, fluorescence | fluorescence inhibition, % (test concentration not listed) | 0.1% of 300,000 active;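 active = 35 to 45% if threefold the growth effect, above 45% if 1.5-fold the growth effect; inactive = the rest, general growth blockers included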;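 note: wells of about 50 µL received 100 nL stock; 0% = vehicle wells and 100% = reference inhibitor wells; whole bacteria with a GFP reporter of the hypoxia response; strong numbers were not always called active; many hits fall short of the cut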
Sa RN4220 lethal: growth inhibition of S. aureus RN4220, primary screen, OD600; 16 h; inhibition, % (concentration not given with the values); 0.33% of 330,000 active; AID 1259311, 2017;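 active = z-score of -3 or lower and OD600 up to 0.18 on both plates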;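 note: plate controls were untreated cells for no effect and reference antibiotic for full effect; stock transfer was 100 nL into about 80 µL; one replicate is shown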
Autofluor counter: counter-screen for toxin protease inhibitors: compound fluorescence. fluorescence intensity (no concentration beside the values). compound autofluorescence counterscreen, microsphere flow cytometry; stronger effect = higher value. 3.1% of 360,000 active;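 active = at least 3 SD above the mean of all compounds, about 16000 in these data; inconclusive = too few beads counted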;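 note: 100 nL of 1 mM stock went into each well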
Mtb hypoxia inh growth: also measured in Mtb hypoxia inh; calls as there; growth inhibition, %; measured here: M. tuberculosis growth (absorbance);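 0% = vehicle and 100% = reference antibiotic; read after six days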
* marks the source's active call; other numbers are inactive results. Not a hit list, and some 4% of all compounds hit somewhere here.

Results for Cn1nc([N+](=O)[O-])nc1Oc1ccccc1 ?
BJeLR lethal: -7; PrP UTR inh: -2; Sa ugtP lethal: 16; Mtb hypoxia inh: -3; Sa RN4220 lethal: 5.9; Autofluor counter: 7867; Mtb hypoxia inh growth: 5

What do the screens show for `Cc1cccc(OCCC(=O)NCC(=O)Nc2c(C)cccc2C)c1`?
BJeLR lethal: 5; PrP UTR inh: -3; Sa ugtP lethal: 1; Mtb hypoxia inh: -5; Sa RN4220 lethal: 5.8; Autofluor counter: 2496; Mtb hypoxia inh growth: 3

Results for COc1ccccc1NC(=O)Cc1ccsc1 ?
BJeLR lethal: 10; PrP UTR inh: -7; Sa ugtP lethal: -3; Mtb hypoxia inh: -6; Sa RN4220 lethal: -1.2; Autofluor counter: 5306; Mtb hypoxia inh growth: 10

Results for COc1ccc2c(c1OC)C(=O)OC2Nc1nc(-c2cccc([N+](=O)[O-])c2)cs1 (stereo not drawn) ?
BJeLR lethal: -3; PrP UTR inh: -35; Sa ugtP lethal: 9; Mtb hypoxia inh: 11; Sa RN4220 lethal: 3.9; Autofluor counter: 3441; Mtb hypoxia inh growth: 2

What do the screens show for `Cc1cccc(C(C)C)c1NC(=O)c1ccc(CN(c2ccccc2)S(=O)(=O)c2ccccc2)cc1`?
BJeLR lethal: 2; PrP UTR inh: 1; Sa ugtP lethal: 10; Mtb hypoxia inh: 5; Sa RN4220 lethal: 2.2; Autofluor counter: 2031; Mtb hypoxia inh growth: 2

What do the screens show for `CCN(C(=O)COc1ccccc1C(=O)NCc1ccccc1)C1CCS(=O)(=O)C1` (stereo not drawn)?
PrP UTR inh: -3; Sa ugtP lethal: -1; Mtb hypoxia inh: 4; Sa RN4220 lethal: 2.9; Autofluor counter: 5489; Mtb hypoxia inh growth: 5

What do the screens show for `CC(C)(C)NC(=O)C1CCC2C3CCC4NC(=O)C=C[C@]4(C)C3CC[C@]12C` (stereo partly drawn)?
Sa ugtP lethal: 1; Mtb hypoxia inh: -3; Sa RN4220 lethal: 9.4; Mtb hypoxia inh growth: 3

Results for O=C(COC(=O)CC1CC2CCC1C2)Nc1ccccc1[N+](=O)[O-] (stereo not drawn) ?
PrP UTR inh: -7; Sa ugtP lethal: 11; Mtb hypoxia inh: 7; Sa RN4220 lethal: 7.9; Autofluor counter: 3728; Mtb hypoxia inh growth: 10

Results for O=C1CCCc2ccccc2N1Cc1ccc(F)cc1 ?
BJeLR lethal: -2; PrP UTR inh: -13; Sa ugtP lethal: 10; Mtb hypoxia inh: -3; Sa RN4220 lethal: 6.2; Autofluor counter: 4265; Mtb hypoxia inh growth: 7

Results for COc1ccc(C2(c3ccc(OC)cc3)NC(=O)N(CC(=O)Nc3ccc(C(N)=O)cc3)C2=O)cc1 ?
BJeLR lethal: -4; PrP UTR inh: 0; Sa ugtP lethal: 3; Mtb hypoxia inh: 11; Sa RN4220 lethal: 2.3; Autofluor counter: 5152; Mtb hypoxia inh growth: 1

Results for CC(C)[C@@H](NC(=O)OC(C)(C)C)C(=O)NCC1CCC(C(=O)N[C@@H](Cc2ccccc2)C(=O)O)CC1 (stereo partly drawn) ?
BJeLR lethal: 2; PrP UTR inh: -12; Sa ugtP lethal: 7; Mtb hypoxia inh: -5; Sa RN4220 lethal: -2.9; Autofluor counter: 3870; Mtb hypoxia inh growth: -1

How did COc1cc(C)c(C)cc1S(=O)(=O)N1CCN(Cc2ccc3c(c2)OCO3)CC1 do in these assays?
BJeLR lethal: 3; PrP UTR inh: -9; Sa ugtP lethal: 11; Sa RN4220 lethal: -1.7; Autofluor counter: 3671

Results for Cc1cc(C)c2sc(N(CCN(C)C)C(=O)c3cc(Cl)sc3Cl)nc2c1 ?
BJeLR lethal: -2; PrP UTR inh: -1; Sa ugtP lethal: 10; Mtb hypoxia inh: 12; Sa RN4220 lethal: -0.5; Mtb hypoxia inh growth: -2

Results for CC(C)c1ccc(Nc2nc(NCc3ccco3)nc(N3CCOCC3)n2)cc1 ?
BJeLR lethal: -1; PrP UTR inh: -8; Sa ugtP lethal: -1; Sa RN4220 lethal: -5.2; Autofluor counter: 4643

How did CCCCNC(=O)c1ccc(NC(C)=O)c(Cl)c1 do in these assays?
BJeLR lethal: 1; PrP UTR inh: -9; Sa ugtP lethal: 0; Mtb hypoxia inh: 4; Sa RN4220 lethal: -0.5; Autofluor counter: 3934; Mtb hypoxia inh growth: 5

Results for c1ccc(Cn2nnc3c(N4CCCCCC4)ncnc32)cc1 ?
BJeLR lethal: -6; PrP UTR inh: -8; Sa ugtP lethal: -19; Mtb hypoxia inh: 13; Sa RN4220 lethal: -3.6; Autofluor counter: 4319; Mtb hypoxia inh growth: 11

What do the screens show for `CC1(OC(=O)CCc2ccccc2)C(=O)C=C2C=C(c3ccc(C#N)cc3)N(CCN3CCOCC3)C=C2C1=O` (stereo not drawn)?
BJeLR lethal: -9; PrP UTR inh: -2; Sa ugtP lethal: -1; Mtb hypoxia inh: 9; Sa RN4220 lethal: 5.6; Autofluor counter: 3260; Mtb hypoxia inh growth: 1

Results for CCOC(=O)C(C)n1cnc2scc(-c3ccc(C)c(C)c3)c2c1=O (stereo not drawn) ?
BJeLR lethal: -6; PrP UTR inh: -5; Sa ugtP lethal: 5; Mtb hypoxia inh: -4; Sa RN4220 lethal: 2.5; Autofluor counter: 4297; Mtb hypoxia inh growth: -7

Results for COc1ccc2nc(NC(=O)CN3CCN(C)CC3)sc2c1 ?
BJeLR lethal: 1; PrP UTR inh: -28; Sa ugtP lethal: -8; Mtb hypoxia inh: 11; Sa RN4220 lethal: 1.3; Autofluor counter: 3331; Mtb hypoxia inh growth: 13

How did CNC(=S)NN=Cc1ccc(-c2ccc(C(=O)O)cc2)o1 do in these assays?
Sa ugtP lethal: -3; Mtb hypoxia inh: 5; Sa RN4220 lethal: -1.2; Mtb hypoxia inh growth: 2

How did Cc1cc(NC(=O)c2cnn3cccnc23)no1 do in these assays?
BJeLR lethal: -2; PrP UTR inh: -63; Sa ugtP lethal: 4; Mtb hypoxia inh: 2; Sa RN4220 lethal: 0.8; Autofluor counter: 12933; Mtb hypoxia inh growth: 2

What do the screens show for `COC(=O)c1ccc(-c2cc(C(=O)O)c3cc4c(cc3n2)OCCO4)cc1`?
BJeLR lethal: 10; PrP UTR inh: -14; Sa ugtP lethal: 9; Sa RN4220 lethal: 0.2; Autofluor counter: 2950

Results for O=C(Nc1ccccc1Cl)ON=C(c1ccccc1)c1ccccn1 ?
Sa ugtP lethal: -1; Mtb hypoxia inh: 7; Sa RN4220 lethal: 5.2; Mtb hypoxia inh growth: 7

What do the screens show for `O=C(/C=C/c1ccc2c(c1)OCO2)NCCSCc1c(Cl)cccc1Cl`?
BJeLR lethal: -5; PrP UTR inh: -28; Sa ugtP lethal: 6; Mtb hypoxia inh: 1; Sa RN4220 lethal: -12; Autofluor counter: 2166; Mtb hypoxia inh growth: 7

How did CCN(c1ccc2c(c1)OCO2)S(=O)(=O)c1cc(Br)cc2c1N(C(C)=O)CC2 do in these assays?
BJeLR lethal: 8; PrP UTR inh: -22; Sa ugtP lethal: -5; Mtb hypoxia inh: 9; Sa RN4220 lethal: 6.0; Autofluor counter: 12952; Mtb hypoxia inh growth: 14

What do the screens show for `N#Cc1cccc(Oc2ccc(S(=O)(=O)N3CCCC3)cn2)c1`?
PrP UTR inh: -19; Sa ugtP lethal: 1; Mtb hypoxia inh: -4; Sa RN4220 lethal: 0.0; Autofluor counter: 4575; Mtb hypoxia inh growth: -14

Results for NCCCCc1ccc2ccc3cccc4ccc1c2c34 ?
PrP UTR inh: -22; Sa ugtP lethal: 100*; Mtb hypoxia inh: 9; Sa RN4220 lethal: 101*; Autofluor counter: inconclusive; Mtb hypoxia inh growth: 6

How did CCN1CCN(c2c(Cl)cccc2NC(=O)c2ccc(Br)o2)CC1 do in these assays?
BJeLR lethal: 4; PrP UTR inh: -1; Sa ugtP lethal: 2; Mtb hypoxia inh: 7; Sa RN4220 lethal: -2.1; Autofluor counter: inconclusive; Mtb hypoxia inh growth: 8

Results for CC(C)N1CCN(Cc2ccc(C#CC(C)(C)O)cc2)CC1CCO (stereo not drawn) ?
BJeLR lethal: -1; PrP UTR inh: -27; Sa ugtP lethal: 13; Mtb hypoxia inh: -2; Sa RN4220 lethal: 1.7; Autofluor counter: 2071; Mtb hypoxia inh growth: 1

How did CCOCCCn1c(=N)c(C(=O)NCc2ccc3c(c2)OCO3)cc2c(=O)n3cccc(C)c3nc21 do in these assays?
BJeLR lethal: 3; PrP UTR inh: -17; Sa ugtP lethal: 8; Mtb hypoxia inh: 3; Sa RN4220 lethal: 0.4; Autofluor counter: 9696; Mtb hypoxia inh growth: 10

Results for COC(=O)c1c(-c2ccc(OC)cc2)oc2ccc(-c3cc(OC)c(OC)c(OC)c3)cc12 ?
BJeLR lethal: 9; PrP UTR inh: 0; Autofluor counter: 4163

Results for Cc1c(Cl)cnc(NC(=O)COC(=O)C2CC3CCCC(C2)C3=O)c1Cl (stereo not drawn) ?
PrP UTR inh: -14; Sa ugtP lethal: -6; Mtb hypoxia inh: -1; Sa RN4220 lethal: -0.6; Autofluor counter: 5464; Mtb hypoxia inh growth: 2

What do the screens show for `C=CCn1nc2ccccc2c1OC`?
BJeLR lethal: 4; PrP UTR inh: -14; Sa ugtP lethal: -1; Mtb hypoxia inh: 12; Sa RN4220 lethal: 5.0; Autofluor counter: 3918; Mtb hypoxia inh growth: 14

What do the screens show for `Cc1ccc(S(=O)(=O)N(C)CC(=O)OCC(=O)NC(=O)Nc2ccc3c(c2)OCCO3)cc1`?
BJeLR lethal: -8; PrP UTR inh: -29; Sa ugtP lethal: 2; Sa RN4220 lethal: 5.8; Autofluor counter: 2275

How did CCOC(=O)C/C(=N\Nc1ncnc2ccccc12)c1ccccc1 do in these assays?
BJeLR lethal: 0; PrP UTR inh: -29; Autofluor counter: 3273

What do the screens show for `COC(=O)Cn1c(=NC(=O)c2ccc(S(=O)(=O)N3CCOCC3)cc2)sc2cc(S(N)(=O)=O)ccc21`?
BJeLR lethal: -8; PrP UTR inh: -15; Sa ugtP lethal: 7; Mtb hypoxia inh: 10; Sa RN4220 lethal: 5.5; Autofluor counter: 4868; Mtb hypoxia inh growth: 5

What do the screens show for `CCOc1ccc(NC(=O)CCC(=O)NNS(=O)(=O)c2ccccc2[N+](=O)[O-])cc1`?
BJeLR lethal: -2; PrP UTR inh: -8; Autofluor counter: 5029

Filtered by structure: those above with a Cl atom.
Results for Cc1cc(C)c2sc(N(CCN(C)C)C(=O)c3cc(Cl)sc3Cl)nc2c1 ?
BJeLR lethal: -2; PrP UTR inh: -1; Sa ugtP lethal: 10; Mtb hypoxia inh: 12; Sa RN4220 lethal: -0.5; Mtb hypoxia inh growth: -2

How did CCCCNC(=O)c1ccc(NC(C)=O)c(Cl)c1 do in these assays?
BJeLR lethal: 1; PrP UTR inh: -9; Sa ugtP lethal: 0; Mtb hypoxia inh: 4; Sa RN4220 lethal: -0.5; Autofluor counter: 3934; Mtb hypoxia inh growth: 5

Results for O=C(Nc1ccccc1Cl)ON=C(c1ccccc1)c1ccccn1 ?
Sa ugtP lethal: -1; Mtb hypoxia inh: 7; Sa RN4220 lethal: 5.2; Mtb hypoxia inh growth: 7

What do the screens show for `O=C(/C=C/c1ccc2c(c1)OCO2)NCCSCc1c(Cl)cccc1Cl`?
BJeLR lethal: -5; PrP UTR inh: -28; Sa ugtP lethal: 6; Mtb hypoxia inh: 1; Sa RN4220 lethal: -12; Autofluor counter: 2166; Mtb hypoxia inh growth: 7

How did CCN1CCN(c2c(Cl)cccc2NC(=O)c2ccc(Br)o2)CC1 do in these assays?
BJeLR lethal: 4; PrP UTR inh: -1; Sa ugtP lethal: 2; Mtb hypoxia inh: 7; Sa RN4220 lethal: -2.1; Autofluor counter: inconclusive; Mtb hypoxia inh growth: 8

Results for Cc1c(Cl)cnc(NC(=O)COC(=O)C2CC3CCCC(C2)C3=O)c1Cl (stereo not drawn) ?
PrP UTR inh: -14; Sa ugtP lethal: -6; Mtb hypoxia inh: -1; Sa RN4220 lethal: -0.6; Autofluor counter: 5464; Mtb hypoxia inh growth: 2
